Assay outcomes (PubChem BioAssay)
RanGTP-Imp inh – inhibitors of RanGTP-importin-beta interaction, primary screen, biochemical, FRET, CFP-Ran, YFP-importin-beta, homogeneous; 1.1% of 300,000 active; inhibition, % (test concentration not listed); cell-free CFP-Ran/YFP-importin-beta FRET ratio; Ran GTPase (GTP-bound) - importin-beta complex; AID 2216, 2009;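 active = most replicates above 15%; inconclusive = exactly half above 15%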;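 note: 0% = DMSO wells and 100% = Ran loaded with GDP instead of GTP; wells of about 40 µL received 100 nL stock; the first replicate is given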
Beta apoptosis – inhibitors of cytokine-induced beta cell apoptosis, primary screen, luminescence | 0.8% of 300,000 active | INS-1E cytokine-induced death, ATP luminescence, 48 h; percent of positive-control rescue, neutral wells zero | AID 435005, 2010 | protection from apoptosis, % (test concentration not listed);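 active = all replicates at 75% or more, or half of them and the mean; inconclusive = half reach 75% but not the mean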;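 note: 0% = cytokine-treated negative control wells and 100% = positive control rescue; higher means more ATP so stronger rescue from cytokine killing; wells of about 40 µL received 100 nL stock; the first replicate is given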
Bfl-1 A1 inh – caspase 3/7 activation in MEF A1-2A-BIM cells, primary screen, A1 inhibitor project, cell-based, luminescence, HTS; caspase activation, % (test concentration not listed); AID 2462, 2010; Caspase-Glo 3/7 luminescence, 3 h; percent of clofoctol response, vehicle zero; 0.066% of 330,000 active;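 active = over half of replicate activation scores above 10%, or exactly half above 10 with the replicate mean above 10; inconclusive = replicate mean below 10 yet half the replicates above 10; inactive = over half of replicates below 10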;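 note: wells of about 30 µL received 50 nL stock; many hits fall short of the cut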
UCH37 inh – inhibitors of human UCH37 deubiquitinase, primary screen, biochemical, Ub-AMC cleavage, fluorescence | Ubiquitin carboxyl-terminal hydrolase isozyme L5 (Homo sapiens), Q9Y5K5 | 0.33% of 330,000 active | purified proteasome/UCH37 | AID 588478, 2011 | inhibition, % (concentration not given with the values);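 active = mean of two replicates above 20%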;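 note: 0% = compound-free wells with enzyme and 100% = wells lacking proteasome; stock transfer was 100 nL into about 20 µL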
Target sequence (Q9Y5K5 whole entry, looked up): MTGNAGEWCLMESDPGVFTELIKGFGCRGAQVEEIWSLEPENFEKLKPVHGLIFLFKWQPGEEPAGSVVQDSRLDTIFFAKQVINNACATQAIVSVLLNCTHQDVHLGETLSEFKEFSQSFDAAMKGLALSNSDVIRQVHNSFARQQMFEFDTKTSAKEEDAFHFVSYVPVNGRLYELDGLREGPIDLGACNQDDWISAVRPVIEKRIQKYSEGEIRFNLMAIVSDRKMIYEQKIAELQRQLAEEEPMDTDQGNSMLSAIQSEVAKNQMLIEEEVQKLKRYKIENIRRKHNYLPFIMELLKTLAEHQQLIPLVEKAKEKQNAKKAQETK
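Material: human UCH37 enzyme supplied as purified proteasome complex. Measure: % inhibition of Ub-AMC cleavage fluorescence. Medium: pH 7.4 Tris-HCl (50 mM) with ovalbumin, ATP-MgCl2, DTT. Times: 30 min preincubation with enzyme, 25 min cleavage at room temperature. Detection: AMC fluorescence intensity at 355/460 nm.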
Beta2AR agonist – beta2AR agonists driving receptor internalization, primary screen, cell-based, FAP fluorogen, flow cytometry; Beta-2 adrenergic receptor (Homo sapiens), P07550; Am2.2-beta2AR cells; reference of the scale not given here; response, % (concentration not given with the values); 0.43% of 340,000 active; AID 504454, 2011;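 active = response above a set limit, near 3 SD of response in nonfluorescent compounds, cut at about 42% in these data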;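 note: stock transfer was 100 nL into about 11 µL; a reference agonist was the positive control; negative values mostly stem from fluorescent compounds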
Target sequence (P07550 whole entry, looked up): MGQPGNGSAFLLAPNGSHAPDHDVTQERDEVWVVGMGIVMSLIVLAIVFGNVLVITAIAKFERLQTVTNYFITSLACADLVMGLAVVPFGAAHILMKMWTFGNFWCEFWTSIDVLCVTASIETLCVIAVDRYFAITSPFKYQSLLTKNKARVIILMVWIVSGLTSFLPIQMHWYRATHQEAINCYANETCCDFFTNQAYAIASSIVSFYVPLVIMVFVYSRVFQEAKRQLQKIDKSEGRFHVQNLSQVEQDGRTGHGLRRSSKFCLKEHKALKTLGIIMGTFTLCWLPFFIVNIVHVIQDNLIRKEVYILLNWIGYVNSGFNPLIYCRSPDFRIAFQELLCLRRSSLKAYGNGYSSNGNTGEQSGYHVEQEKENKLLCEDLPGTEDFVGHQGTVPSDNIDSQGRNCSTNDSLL
T cruzi repl – inhibitors of intracellular T. cruzi growth, primary screen, luminescence, NIH3T3 host cells. T. cruzi beta-gal in NIH3T3, 90 h. inhibition, % (concentration not given with the values). 1.4% of 300,000 active;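 active = mean inhibition across valid replicates above about 55%, limit read from the data; inconclusive = mean below that limit but half or more replicates reach it; inactive = mean below it, under half of replicates reach it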;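 note: signal also drops with host cell toxicity which is not excluded here; 0% = plate median of DMSO wells and 100% = zero luminescence signal; higher percent means less beta-gal luminescence so fewer parasites; stock transfer was 50 nL into about 50 µL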
LANA-H2A inh – blockers of LANA interaction with H2A/H2B – biochemical, FP readout, HTS, primary screen | Protein LANA1 (Human herpesvirus 8 type P (isolate GK18)), Q9QR71 | cell-free LANA-H2A/H2B peptide, fluorescence polarization | inhibition, % (concentration not given with the values) | 0.6% of 320,000 active; in the data active = inhibition mostly above about 10%, no sharp cut-off; inactive = mostly below about 6.7%;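 note: stock transfer was 7.5 nL into about 10 µL; 0% = median of vehicle wells and 100% = median of positive control wells; one replicate is shown; the record names a cut of 25% in any replicate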
Calb FLC – C. albicans growth inhibition with fluconazole, primary screen, CaCi-2 strain, Alamar Blue fluorescence. C. albicans CaCi-2 (fluconazole-resistant clinical isolate) + fluconazole, 48 h. growth inhibition, % (no concentration beside the values). 0.57% of 300,000 active;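 active = most replicates above 75%; inconclusive = exactly half above 75%; inactive = most below 75%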;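 note: all wells also contain fluconazole at 8 µg/ml as a sub-toxic cotreatment; 0% = median of DMSO wells and 100% = median of geldanamycin control wells; wells of about 8 µL received 7.5 nL stock; the first replicate is given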
Starred values were filed as active, the others as inactive; ? = inconclusive; . = no result given.

SMILES	RanGTP-Imp inh	Beta apoptosis	Bfl-1 A1 inh	UCH37 inh	Beta2AR agonist	T cruzi repl	LANA-H2A inh	Calb FLC
CCOC(=O)C1CCCN(Cc2ccccc2OCC)C1 (stereo unspecified)	4.8	1	0.0	5.2	-1	20	-2.3	-9
CSc1nnc(C)c(=O)n1COC(=O)COc1ccccc1F	3.3	2	0.4	5.7	3	-22	5.7	-6
COc1ccc(CCNC(=O)C(C)SCc2ccccc2)cc1 (stereo unspecified)	-2.2	4	0.5	0.6	2	7	-4.6	16
NNc1nc2sc3c(c2c(=O)[nH]1)CCc1ccccc1-3	0.4	-7	0.0	1.5	38	-37	0.5	19
CC1=C(C(=O)OCc2ccccc2)C(c2ccoc2)C(C#N)=C(N)O1 (stereo unspecified)	-4.0	-3	0.8	-0.4	-1	0	1.7	-8
COc1cc2ccccc2cc1C(=O)Nc1nccs1	-1.5	0	-2.2	-16	3	-12	20*	4
Cc1cc(C)nc(SCc2nnc(SCC(=O)N3CCOCC3)o2)n1	-0.7	-3	-0.2	4.7	-5	-9	3.4	?
O=C(NC(=S)N1CCN(C(c2ccccc2)c2ccccc2)CC1)c1ccc(S(=O)(=O)N2CCOCC2)cc1	2.1	21	0.6	1.9	3	24	-2.8	54
CCC1(CC)Cc2ccccc2-c2nc3ccccc3c(=O)n21	0.4	2	0.6	0.9	17	5	-1.5	6
O=C(Oc1ccc(OC(=O)N2CCOCC2)cc1)c1ccccc1	3.1	1	-3.1	1.2	7	-5	0.2	-38
COc1cc(C(=O)NCC2(N3CCCCC3)CCCCC2)ccc1OCC(=O)N1CCOCC1	5.4	-3	0.7	3.6	1	-4	-0.8	-3
Cc1cccnc1N(C(=O)Nc1ccccc1)C1=NCC(C)(C)S1	-0.2	6	-0.4	1.0	14	-10	3.5	-31
COc1ccc(C(C(=O)OCCN(C)C)c2ccccc2)cc1 (stereo unspecified)	-2.4	1	-1.6	-2.9	10	-3	3.9	-3
Cc1nnc(NC(=O)CCNC(=O)c2ccccc2Cl)s1	-1.1	-2	1.7	5.0	1	0	1.5	-3
COc1ccc(NC(=O)C2CC3CCC2C3)c(OC)c1 (stereo unspecified)	-3.6	.	0.3	1.2	-7	2	5.8	10
O=C1CCCN1c1ccc(C(=O)N(Cc2nnc(-c3ccccc3Cl)o2)C2CC2)cc1	5.6	6	-0.3	1.9	-10	-3	-0.1	.
CC(=O)c1cc(C#N)c(SCc2ccccn2)nc1C	7.7	5	0.7	2.4	-19	3	1.0	-1
CCOC(=O)CNC(=O)C(Cc1ccccc1)NC(=O)OCc1ccccc1 (stereo unspecified)	-1.0	-4	0.0	.	-3	-6	2.8	-4
Cc1ccsc1C(=O)N1CCCC(CO)(Cc2ccccc2F)C1 (stereo unspecified)	1.0	-5	-1.1	.	-3	9	1.7	3
Cc1ccc(OCC(=O)NCCNC(=O)c2cnccn2)cc1C	3.1	.	.	2.4	4	-4	.	-2
CCOC(=O)c1cnn(C(=O)c2ccccc2)c1N	-0.4	.	.	1.2	2	-3	.	0
Cc1cc(C)cc(NC(=S)N(CCCN2CCN(C)CC2)Cc2cccs2)c1	-2.5	-1	0.2	0.9	6	7	0.6	0
COc1ccc(-n2c(=O)c3ccccc3n(CC(=O)NC3CCCCC3)c2=O)cc1OC	2.3	-7	0.5	0.8	-8	-6	-3.0	1
COc1ccccc1CNC(=O)C1CCC(=O)N(CCCc2ccccc2)C1 (stereo unspecified)	0.7	-5	-1.0	5.7	-1	-1	2.5	-12
COc1ccccc1NC(=O)N(Cc1ccco1)Cc1cc2ccc(C)c(C)c2[nH]c1=O	2.4	-10	0.2	1.8	-1	7	4.9	30
Remaining list, next part:
SMILES	RanGTP-Imp inh	Beta apoptosis	Bfl-1 A1 inh	UCH37 inh	Beta2AR agonist	T cruzi repl	LANA-H2A inh	Calb FLC
CN(C(=O)COC(=O)CCc1c[nH]c2ccccc12)c1ccccc1	3.8	1	-0.1	2.2	-10	-9	2.0	0
CN1CCN(C(=O)C2CCCN(S(=O)(=O)c3ccccc3)C2)CC1 (stereo unspecified)	0.8	5	-1.4	3.4	-3	-2	2.1	-8
CC(C)CCNC(=O)c1cc([N+](=O)[O-])ccc1N1CCOCC1	-5.4	-4	1.1	9.2	-1	-1	2.5	0
COc1cc(/C=N/n2c(COc3ccccc3)n[nH]c2=S)cc(Br)c1O	0.0	3	-0.4	.	11	9	0.3	15
CC(NS(=O)(=O)c1ccc(Cl)cc1)C(=O)N1CCOCC1 (stereo unspecified)	-5.1	2	-0.1	5.1	0	-9	-0.4	2
COc1ccc(NC(=O)Cc2c(Sc3ccccc3)c3ccccc3n2C)cc1	?	-6	0.6	2.7	-5	12	-3.3	-14
O=C(CCc1[nH]c2ccccc2c1Sc1ccccc1)N(CCO)CCO	-1.1	-3	0.8	6.6	-18	4	-4.7	21
Cc1ccc(C(=O)Oc2ccc3ccc(=O)oc3c2)cc1	-1.5	-3	-0.5	-80	-3	-8	0.0	-21
COc1cc(-c2[nH]ncc2CN(C)Cc2nonc2C)cc(OC)c1OC	0.6	-2	1.5	0.9	11	-5	0.4	4
CCOC(=O)c1c(NC(=O)COC(=O)CCS(=O)(=O)c2ccc(C)cc2)sc(C)c1C	-1.9	0	0.5	-0.7	4	-20	2.0	-1
CCOC(=O)NCc1ccc(S(=O)(=O)Nc2c(C)cccc2C)cc1	3.8	-2	0.0	1.5	21	3	-0.2	6
Cc1ccc(-c2nc(N/N=C/c3ccncc3)c3ccccc3n2)cc1	3.1	64	0.2	.	14	8	0.8	26
Cc1ccc(CCNC(=O)CCS(=O)(=O)c2ccc3c(c2)oc(=O)n3C)cc1	-0.1	-9	0.4	4.8	-18	-9	-1.0	-2
COc1ccc(NC(=S)NCCc2c[nH]c3ccc(OC)cc23)c(OC)c1	5.0	1	-0.3	2.5	4	-11	2.8	-14
COc1cc2ccccc2cc1C(=O)NCc1ccncc1	4.3	-4	0.8	-81	-5	1	-5.9	17
CCO[C@@H]1OC(C(=O)NCc2ccccc2)=C[C@H](c2cn(C(C)=O)c3ccccc23)[C@H]1CCCO	3.2	2	-1.1	-1.3	1	19	1.3	16
O=C(CN1CCN(S(=O)(=O)c2ccc(C(F)(F)F)cc2)CC1)N1CCNC1=O	.	1	0.2	2.4	-8	.	.	.
CCn1c(CNc2ccc(F)cc2)nnc1SCC(=O)Nc1ccccc1OC	-0.3	-5	3.5	0.1	-4	-1	3.7	8
O=C(NCc1ccccc1F)C1CCCN1C(=O)Nc1ccc(F)cc1 (stereo unspecified)	2.4	3	0.0	2.1	0	2	1.0	7
O=C(c1ccc(CS(=O)(=O)c2cccc(C(F)(F)F)c2)o1)N1CCN(c2ccccn2)CC1	2.8	-1	-0.2	.	-15	6	0.7	4
Cn1c(SCC(=O)Nc2ccccc2F)nnc1-c1ccc(S(=O)(=O)N2CCOCC2)cc1	-8.3	-4	0.4	1.2	-10	10	0.4	-16
O=C(Nc1nccs1)c1ccccn1	-0.5	2	-2.1	0.9	-2	-11	1.2	-1
Cc1nn(C)c(C(=O)NC(=S)Nc2ccccc2Br)c1Cl	4.6	-2	-0.7	5.9	3	-21	0.2	10
O=c1cc(-c2ccccc2)[nH]n1-c1nc2ccccc2s1	-4.1	5	-1.8	7.8	2	1	1.5	9
O=C(Nc1c(Cl)cccc1Cl)C1CCN(C(=O)c2cccs2)CC1	-3.1	5	-0.1	1.3	-4	2	-0.6	-3
Next structures
SMILES	RanGTP-Imp inh	Beta apoptosis	Bfl-1 A1 inh	UCH37 inh	Beta2AR agonist	T cruzi repl	LANA-H2A inh	Calb FLC
O=C(c1ccco1)N1CCC(c2nc3c(nnn3Cc3ccc(F)cc3)c(=O)[nH]2)CC1	0.7	1	1.3	1.6	3	-6	-1.9	9
CCOc1ccccc1N1CCN(C(=O)c2ccncc2)CC1	-2.9	.	0.2	3.1	6	-21	-8.6	3
Cn1cc(Br)cc2nc(C(F)(F)F)nc1-2	0.7	-1	0.8	2.6	-8	-16	0.0	0
Cc1ccc(OCCCc2c(C)n[nH]c2C)cc1	-0.6	-4	-0.8	1.3	-6	-2	-3.0	-9
CCc1ccc(C(=O)Nc2ccc(OC)c(S(=O)(=O)N3CCCCC3)c2)cc1	.	-6	-0.8	3.2	2	.	-4.3	.
C#Cc1ccc([C@@H]2C=C(C(=O)OCC=C)O[C@H](OCCCCO)C2)cc1	-3.1	-5	1.2	1.5	-3	0	1.3	-6
Nc1nc(SCC(=O)c2ccc([N+](=O)[O-])cc2)n[nH]1	2.3	3	0.4	-0.6	11	-2	-2.1	-3
CCN(CC(=O)Nc1ccc2c(c1)OCCO2)C(=O)C(C)Oc1ccc(Cl)cc1 (stereo unspecified)	-0.7	4	0.1	5.4	5	-8	12	0
C[C@H](CO)N1C[C@H](C)[C@@H](CN(C)S(=O)(=O)c2ccc(F)cc2)Oc2ccc(NC(=O)C3CCCCC3)cc2C1=O	.	3	-0.2	4.4	3	.	-5.4	.
CCOC(=O)C1CCN(C(=O)c2ccc(SC)cc2OC)CC1	-3.7	-5	0.6	5.3	8	0	5.8	2
CC(=O)c1ccc2noc(-c3cccc(F)c3)c2c1	-0.3	-8	0.2	-6.7	10	-5	0.5	-6
Cc1cc(OC(=O)N2CCOCC2)cc(C)c1Cl	1.1	-6	0.9	2.8	-1	9	3.5	-7
CCN1C(=O)C(CC(=O)Nc2ccccc2)N(Cc2ccccn2)C1=S (stereo unspecified)	2.8	-1	0.8	0.9	3	-8	-1.4	4
Cc1nn(-c2ncc(C(F)(F)F)cc2Cl)c(=O)n1-c1cccc(Cl)c1	0.7	-3	-0.7	1.2	-14	-22	-0.2	-2
Cc1cccc2sc(N(CCCN(C)C)C(=O)c3ccc(C(=O)c4ccccc4)cc3)nc12	1.3	8	-2.5	2.1	17	43	-2.3	-12
Cc1ccc[n+](CC(=O)Nc2cccc([N+](=O)[O-])c2)c1	-0.8	-5	-0.2	5.9	5	-10	6.5	-10
CCOC(=O)[C@@H]1[C@H]2COc3ccccc3[C@@H]2N2C(=O)N(c3ccc(OC)cc3)C(=O)[C@@]12C	-1.3	-7	0.0	0.1	-1	-23	-1.8	-1
CCC(=O)NCc1cc(-c2nn(C)c(=O)c3ccccc23)ccc1C	?	-5	0.8	1.0	9	-4	-4.5	-17
COc1ccc(/C=N/n2c(C)cc(C)c(C(N)=O)c2=O)cc1	7.7	-8	-0.4	.	-2	-19	2.9	2
O=C(N/N=C/c1cccc(OC(=O)c2ccco2)c1)c1ccc(F)cc1	-1.9	-5	-0.6	.	-4	8	-4.8	-9
